# CFTR F508del: compounds raising F508del-CFTR protein level – cell-based, HeLa F508del-CFTR, immunofluorescence, viability, primary screen (AID 1224863) | HeLa F508del-CFTR, immunofluorescence total CFTR, 24 h; by the record results were divided by relative cell number; some inactives read as strong as hits | calls, or highest fold increase where a dose series was run | 10,000 tested, 0.1% active; in the data nearly all actives have a first-pass fold increase above 1.5; a few of its hits are not listed in these tables;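 further: total CFTR protein by anti-CFTR immunofluorescence in fixed cells; first pass at 25 µM or 10 µg/mL by library and series up to twice that; 1 = untreated cells; first-pass hits also needed half or more of the cells alive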
# CFTR F508del fold 25 µM: also measured in CFTR F508del; calls as there; fold increase; measured here: primary screen single dose 25 uM; library dosed in µM
# CFTR F508del fold 10 ug/mL: also measured in CFTR F508del; calls as there; fold increase; measured here: primary screen 10 ug/mL
# CFTR F508del viability 25 µM: second read-out of CFTR F508del, no call of its own (marks repeat the call); viability, %; measured here: primary viability 25 uM; library dosed in µM;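 0% = killed and 100% = untreated cells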
# CFTR F508del viability 10 ug/mL: further read-out of CFTR F508del, marked with its call; viability, %; measured here: primary viability 10 ug/mL;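 0% = killed and 100% = untreated cells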
# * = called active by the depositor; i = inactive; · = not tested or not shown; & = joins results of further samples.
SMILES,CFTR F508del,CFTR F508del fold 10 ug/mL,CFTR F508del viability 10 ug/mL,others
CCSc1nnc(SC(C)c2ccc(F)cc2)s1 (stereo unspecified),i,0.8,77,
Fc1ccc(-c2noc(CSc3nnnn3Cc3ccco3)n2)cc1,i,1,96,
O=C(NCCc1cccs1)C1CC(=O)N(C2CCCC2)C1 (stereo unspecified),i,1.1,95,
COc1cc(C2Nc3ccccc3C(=O)N2CC(F)(F)F)cc(OC)c1O (stereo unspecified),i,0.97,76,
O=C(Nc1ccc(SC(F)F)cc1)C1CC(=O)N(C2CCCC2)C1 (stereo unspecified),i,0.97,87,
NS(=O)(=O)c1ccc2c(c1)CCN2Cc1cccc(C(F)(F)F)c1,i,0.94,84,
Cc1ccc(CNC(=O)c2cnn(C)c2-n2cccc2)s1,i,0.94,96,
CC(OC(=O)c1cccn1C)C(=O)C12CC3CC(CC(C3)C1)C2 (stereo unspecified),i,0.93,106,
CN[C@@H]1[C@@H](O)[C@@H](O[C@@H]2[C@@H](O)[C@H](O[C@H]3O[C@H]([C@@H](C)NC)CC[C@H]3N)[C@@H](N)C[C@H]2N)OC[C@]1(C)O,i,·,·,CFTR F508del fold 25 µM=1.1;CFTR F508del viability 25 µM=99
CCn1cnn(CN2CCN(C(=O)N(C)C)CC2)c1=S,i,1,103,
CCCCN1CCCCC1C(=O)Nc1c(C)cccc1C (stereo unspecified),i,·,·,CFTR F508del fold 25 µM=0.84&1&1.1;CFTR F508del viability 25 µM=69&90&111
CCONC(=O)c1ccc2c(c1)NC(=O)CS2,i,0.94,91,
C1=C(c2ccccc2)Nc2nnnn2C1c1cn(-c2ccccc2)nc1-c1cccs1 (stereo unspecified),i,0.98,100,
CC1(C)[C@H](C(=O)O)N2C(=O)C[C@H]2S1(=O)=O,i,·,·,CFTR F508del fold 25 µM=1;CFTR F508del viability 25 µM=79
COc1ccc(/C=C/c2nc3ccccc3s2)c(OC)c1OC,i,0.86,72,
CC1CN(CC(=O)/C=C2/N(C)c3ccccc3C2(C)C)CC(C)O1 (stereo unspecified),i,1,100,
O=C(OCn1nnc2ccccc2c1=O)c1cc(-c2ccc(Cl)cc2)nc2ccccc12,i,0.95,84,
C=CCn1c(SC2CCCCNC2=O)nc2ccccc2c1=O (stereo unspecified),i,0.94,84,
O=C(c1cnc2c(cnn2C2CCCCC2)c1)c1cc(Cl)cc(Cl)c1O,i,0.95,88,
CCN(C(=O)C(C)Sc1nc2sc(C)c(C)c2c(=O)n1CC)C1CCS(=O)(=O)C1 (stereo unspecified),i,0.98,92,
CCOC(=O)C1=C(CSc2nc(C)c(C)c(C)c2C#N)NC(=O)NC1,i,1,104,
O=c1[nH]c(=O)n(C2CC2)c2[nH]c(C3CC3)nc(=S)c12,i,1.1,104,
O=C(O)c1cn(-c2ccc(F)cc2)c2cc(N3CCNCC3)c(F)cc2c1=O,i,·,·,CFTR F508del fold 25 µM=1&0.97;CFTR F508del viability 25 µM=90&93
Cc1cc(NC(=O)N2CCCCCCC2)no1,i,1,95,
COc1ccc2c(COC(=O)c3nc(SC)ncc3Cl)cc(=O)oc2c1,i,1.1,93,
Cc1ccc(-c2csc(-c3ccsc3)n2)s1,i,0.99,82,
CC(=O)c1c(C)[nH]c(C(=O)C(C)Sc2n[nH]c(C(C)C)n2)c1C (stereo unspecified),i,0.88,85,
CC1CC(OC(=O)C(O)c2ccccc2)CC(C)(C)C1 (stereo unspecified),i,·,·,CFTR F508del fold 25 µM=1;CFTR F508del viability 25 µM=82
CC1CN(S(=O)(=O)N2CCN(C(=O)C(C)NC(=O)c3ccoc3)CC2)CC(C)O1 (stereo unspecified),i,1.1,104,
CC(NC(=O)CCN1C(=O)CCC1=O)c1cccs1 (stereo unspecified),i,0.95,97,
Fc1ccc(-c2csc3ncnc(N4CCN5CCCCC5C4)c23)cc1 (stereo unspecified),i,0.95,103,
CCN(CC)S(=O)(=O)NC1CCN(S(=O)(=O)CC)CC1,i,1.1,89,
Nc1ccc(-c2cc(-c3ccccc3)c3cc(Cl)ccc3n2)cc1,i,1,106,
CCN1CCCC(C(=O)O)C1 (stereo unspecified),i,1.1,92,
CN(CC12CC3CC(CC(C3)C1)C2)C(=O)C1CCCN(C(=O)c2cccs2)C1 (stereo unspecified),i,0.95,90,
CCOc1ccc(NC(C)=O)cc1,i,·,·,CFTR F508del fold 25 µM=0.88;CFTR F508del viability 25 µM=89
CS(=O)(=O)c1ccc(Cl)c(C(=O)OCC(=O)c2ccc3c(c2)NC(=O)CO3)c1,i,1.1,108,
Cn1c(-c2ccccc2)c(C(=O)CSc2nc3ccccc3o2)c2ccccc21,i,0.91,81,
O=C(CSCc1nc2sc3c(c2c(=O)[nH]1)CCC3)NC1CCCC1,i,1,94,
CC1CN(CCC(=O)NC(=O)NC23CC4CC(CC(C4)C2)C3)CC(C)O1 (stereo unspecified),i,0.92,86,
CCOc1cc(CO)ccc1OCCOc1ccc(C)cc1,i,1.1,102,
Cn1c(-c2cc(-c3ccccc3)oc2-c2ccccc2)nc2ccccc21,i,0.89,82,
COCCN1C(=O)C(=O)/C(=C(\O)c2ccc(OC)c(C)c2)C1c1ccc(C(C)(C)C)cc1 (stereo unspecified),i,0.96,98,
CCc1sc(-c2nnc(CN3CCc4sccc4C3CC)o2)cc1C (stereo unspecified),i,1.1,97,
O=C1NCCN1c1cnccn1,i,0.9,101,

# Part of the list above in order of length of the SMILES, smallest number first.
SMILES,CFTR F508del,CFTR F508del fold 10 ug/mL,CFTR F508del viability 10 ug/mL,others
CCN1CCCC(C(=O)O)C1 (stereo unspecified),i,1.1,92,
CCOc1ccc(NC(C)=O)cc1,i,·,·,CFTR F508del fold 25 µM=0.88;CFTR F508del viability 25 µM=89
Fc1ccc(-c2csc3ncnc(N4CCN5CCCCC5C4)c23)cc1 (stereo unspecified),i,0.95,103,

# Going on with the list.
SMILES,CFTR F508del,CFTR F508del fold 10 ug/mL,CFTR F508del viability 10 ug/mL,others
Cn1nnnc1SCC1=C(C(=O)O)N2C(=O)C(NC(=O)C(O)c3ccccc3)C2SC1 (stereo unspecified),i,·,·,CFTR F508del fold 25 µM=1.1;CFTR F508del viability 25 µM=81
Cn1c(SCc2cc([N+](=O)[O-])cc3c2OCOC3)n[nH]c1=O,i,1,92,
Cc1noc(C)c1S(=O)(=O)NCCNc1ncc(C(F)(F)F)cc1Cl,i,0.98,95,
N#Cc1c(NC(=O)CN2CCN(C(=O)C3CC3)CC2)sc2c1CCC2,i,1.1,102,
CCN(CC)CCOC(=O)C(Cc1cccc2ccccc12)CC1CCCO1 (stereo unspecified),i,·,·,CFTR F508del fold 25 µM=1.1;CFTR F508del viability 25 µM=111
CC(C)C(Sc1nnc(N)s1)C(=O)NC(N)=O (stereo unspecified),i,0.96,103,
O=c1[nH]nc(SCc2cc3c(cc2Br)OCCO3)n1C1CC1,i,0.85,85,
CCN(Cn1nc(-c2ccco2)n(C)c1=S)C1CCS(=O)(=O)C1 (stereo unspecified),i,1,95,
CCOC(=O)N1CCC(NC(=O)CCCN)CC1,i,1.1,98,
O=S(=O)(c1ccc(S(=O)(=O)N2CCCC2c2nc3ccccc3s2)cc1)N1CCOCC1 (stereo unspecified),i,1.1,105,
CC1(C)S[C@@H]2C(N3C(=O)[C@@H](c4ccccc4)NC3(C)C)C(=O)N2[C@H]1C(=O)O (stereo partly specified),i,·,·,CFTR F508del fold 25 µM=1.2;CFTR F508del viability 25 µM=101
CC1CN(S(=O)(=O)N2CCCC(c3nc4ccccc4o3)C2)CC(C)O1 (stereo unspecified),i,1.1,109,
Cc1cccc(OCCCOn2nnc3ccc(S(C)(=O)=O)cc32)c1,i,1,86,
O=C1CN(CC(=O)Nc2ccc(N3CCCC3=O)cc2)CCN1,i,1,109,
CC1CCc2c(sc3ncnc(Sc4nnc(C5CC5)o4)c23)C1 (stereo unspecified),i,1.1,85,
CCN1C(=O)C(=O)N(Cc2cc(-c3cccs3)on2)C1=O,i,1.1,107,
O=C(COC(=O)C1(c2ccc(Cl)cc2)CCC1)N1CCc2ccccc21,i,1.1,106,
Cc1c(NCC(C2CCOC2)N2CCOCC2)cc(C#N)cc1[N+](=O)[O-] (stereo unspecified),i,1,96,
O=S(=O)(Cc1ccc(F)cc1Cl)C12CC3CC(CC(C3)C1)C2,i,1.1,104,
CCN1C(=O)C(=O)N(CC(=O)N2CCc3sccc3C2)C1=O,i,0.95,99,
O=c1ccc([N+](=O)[O-])c[nH]1,i,0.91,113,
CC(C)Nc1ncnc2cc(-c3ccc(F)cc3)sc12,i,1,82,
CCCN(CC(=O)OC)S(=O)(=O)c1cn(C)c(=O)n(C)c1=O,i,1.1,107,
CN1C(=O)C(=O)N(CN2CCN(Cc3ccc(-c4cccc(F)c4)s3)CC2)C1=O,i,0.82,70,
Clc1ccc(-c2cnc(CSc3nnc(-c4ccco4)o3)o2)cc1,i,0.97,101,
Cc1cc2nnc(SCc3noc(-c4ccsc4)n3)n2c(C)n1,i,0.99,81,
Cn1ncc2c(Oc3cc(Cl)ccc3Cl)ncnc21,i,0.9,91,
CC(=O)c1c(C)[nH]c(C(=O)Cn2cnc3ccsc3c2=O)c1C,i,1,95,
O=C(Nc1ccc2c(c1)CCC2)C1CC2C=CC1C2 (stereo unspecified),i,1.2,90,
CS(=O)(=O)c1ccc(S(N)(=O)=O)cc1,i,0.98,97,

# The last seven compounds of the section before are carried over, then new ones follow.
SMILES,CFTR F508del,CFTR F508del fold 10 ug/mL,CFTR F508del viability 10 ug/mL,others
CN1C(=O)C(=O)N(CN2CCN(Cc3ccc(-c4cccc(F)c4)s3)CC2)C1=O,i,0.82,70,
Clc1ccc(-c2cnc(CSc3nnc(-c4ccco4)o3)o2)cc1,i,0.97,101,
Cc1cc2nnc(SCc3noc(-c4ccsc4)n3)n2c(C)n1,i,0.99,81,
Cn1ncc2c(Oc3cc(Cl)ccc3Cl)ncnc21,i,0.9,91,
CC(=O)c1c(C)[nH]c(C(=O)Cn2cnc3ccsc3c2=O)c1C,i,1,95,
O=C(Nc1ccc2c(c1)CCC2)C1CC2C=CC1C2 (stereo unspecified),i,1.2,90,
CS(=O)(=O)c1ccc(S(N)(=O)=O)cc1,i,0.98,97,
CC1(C)S[C@@H]2[C@H](NC(=O)Cc3ccccc3)C(=O)N2[C@H]1C(=O)O,i,·,·,CFTR F508del fold 25 µM=1;CFTR F508del viability 25 µM=89
CCCCc1oc2ccccc2c1C(=O)c1cc(I)c(OCCN(CC)CC)c(I)c1,i,·,·,CFTR F508del fold 25 µM=1&0.95;CFTR F508del viability 25 µM=90&89
COC(=O)C1CSC2(c3ccc(Br)cc3)CCC(=O)N12 (stereo unspecified),i,0.95,95,
O=C(OCC(=O)N(C1CC1)C1CCS(=O)(=O)C1)c1sccc1S(=O)(=O)N1CCCCC1 (stereo unspecified),i,1.1,80,
O=C1OCCN1c1ccc(O)cc1,i,1.1,107,
CCc1cc2c(SCc3ccc([N+](=O)[O-])cc3)ncnc2s1,i,0.98,95,
Cc1ccc(OCc2nc(SCc3cc(=O)oc4cc(C)ccc34)n[nH]2)cc1,i,1.1,106,
CS(=O)(=O)N1CCN(C(=O)CN2C(=O)NC3(CCCCCC3)C2=O)CC1,i,1,111,
CC(=O)c1ccc2c(c1)N(CCCN1CCC(CCO)CC1)c1ccccc1S2,i,·,·,CFTR F508del fold 25 µM=1.4;CFTR F508del viability 25 µM=93
CN(C)c1ccc(C(=O)OCC(=O)c2ccc3c(c2)OCCO3)cc1,i,1,107,
Cc1ccc(S(=O)(=O)c2ccc(CSc3nnnn3C)cc2)cc1,i,0.9,85,
O=S(=O)(Nc1cc(S(=O)(=O)N2CCOCC2)ccc1O)c1ccc2c(c1)OCCO2,i,1.1,98,
O=C(O)CCS(=O)(=O)C1CCCC1,i,1.1,104,
CC(NS(=O)(=O)N(C)C1CCCCC1)c1ccc(C#N)cc1 (stereo unspecified),i,0.84,87,
CC(C)(C)n1nnnc1SCC(=O)c1ccc2c(c1)CCCC(=O)N2,i,0.94,95,
Cc1nc(N2CCC3(CC2)OCCO3)c2c(-c3cccs3)csc2n1,3.2,1.6,91,
O=C(NCC1CC1)Nc1cccc(I)c1,i,0.92,81,
Clc1ccc(-c2nnc(SCC3CCCCO3)n2-c2ccccc2)cc1 (stereo unspecified),i,1.1,99,
Cc1noc(C)c1S(=O)(=O)N(C)Cc1nc(-c2cccs2)oc1C,i,1,81,
CCC(CC)NC(=O)c1cc(-c2ccco2)[nH]n1,i,1.2,106,
CC1CN(CCCCN)CC(C)O1 (stereo unspecified),i,1.2,98,
CC1(C2CC2)NC(=O)N(CN2CCC(c3nc4ccccc4o3)CC2)C1=O (stereo unspecified),i,1,95,

# Filtered by structure, the entries above with a tert-butyl group (2)
SMILES,CFTR F508del,CFTR F508del fold 10 ug/mL,CFTR F508del viability 10 ug/mL,others
COCCN1C(=O)C(=O)/C(=C(\O)c2ccc(OC)c(C)c2)C1c1ccc(C(C)(C)C)cc1 (stereo unspecified),i,0.96,98,
CC(C)(C)n1nnnc1SCC(=O)c1ccc2c(c1)CCCC(=O)N2,i,0.94,95,

# A portion of the library, so the mix of outcomes need not match the whole.
